Source: PubChem
DUX4 inh: inhibitors of DUX4-driven ZSCAN4 reporter expression, primary screen, 293T cells, Gaussia and Italica luciferase. activity change, negative = inhibition, % (test concentration not listed). hit rate 0.8% among 37,000. 293T-iDUX4 ZSCAN4-Gaussia luciferase reporter, 24 h; active compounds read low. AID 1224904, 2016;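 active = -10% or lower and over 25 points stronger than a control reporter; inconclusive = -10% or lower with a smaller gap; inactive = above -10%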;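 also: 0% = median of neutral control wells and -100% = median of positive control wells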
DUX4 inh difference: further read-out of DUX4 inh, marked with its call; Gaussia minus Italica difference, %; measured here: selective DUX4 reporter inhibition;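 worked out from the two reporters; negative = selective loss of the DUX4 reporter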
DUX4 inh control: also measured in DUX4 inh; calls as there; activity change, negative = inhibition, %; measured here: Italica tet-on control reporter;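 0 = neutral control and -100 = positive control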
Numbers without * were called inactive; ? = inconclusive; / = not tested or not shown. An excerpt, so the mix of outcomes need not match the whole.

Start of the data: the first 4 entries as a preview:
| DUX4 inh | DUX4 inh difference | DUX4 inh control | Compound |
| --- | --- | --- | --- |
| -0.4 | 1.7 | -2.1 | C/C=C/c1ccc([C@@H]2[C@@H](CO)N(C(C)=O)C23CN(C(=O)c2ccncc2)C3)cc1 |
| -0.1 | 1.8 | -1.9 | C[C@H](CO)N1C[C@H](C)[C@H](CN(C)S(=O)(=O)c2cccc(C#N)c2)OCc2ccccc2-c2ccccc2C1=O |
| 12.5 | 14.1 | -1.7 | CN(C)c1ccc2c(c1)[C@@H]1C[C@@H](CC(=O)NCc3ccc4c(c3)OCO4)O[C@@H](CO)[C@@H]1O2 |
| ? | / | / | C[C@H](CO)N1C[C@H](C)[C@H](CN(C)S(=O)(=O)c2ccc([N+](=O)[O-])cc2)OCc2ccccc2-c2c(n(C)c3ccccc23)C1=O |

The listing (from the top)
| DUX4 inh | DUX4 inh difference | DUX4 inh control | Compound |
| --- | --- | --- | --- |
| -0.4 | 1.7 | -2.1 | C/C=C/c1ccc([C@@H]2[C@@H](CO)N(C(C)=O)C23CN(C(=O)c2ccncc2)C3)cc1 |
| -0.1 | 1.8 | -1.9 | C[C@H](CO)N1C[C@H](C)[C@H](CN(C)S(=O)(=O)c2cccc(C#N)c2)OCc2ccccc2-c2ccccc2C1=O |
| 12.5 | 14.1 | -1.7 | CN(C)c1ccc2c(c1)[C@@H]1C[C@@H](CC(=O)NCc3ccc4c(c3)OCO4)O[C@@H](CO)[C@@H]1O2 |
| ? | / | / | C[C@H](CO)N1C[C@H](C)[C@H](CN(C)S(=O)(=O)c2ccc([N+](=O)[O-])cc2)OCc2ccccc2-c2c(n(C)c3ccccc23)C1=O |
| 4.3 | -7.0 | 11.2 | CN1c2ccc(-c3ccccc3F)cc2[C@@H]2[C@@H](CCN2C(=O)c2ccccn2)[C@H]1CO |
| 16.8 | 1.5 | 15.2 | Cc1ccccc1-c1ccc([C@H]2[C@H](CO)N3CCCCN(S(C)(=O)=O)C[C@@H]23)cc1 |
| ? | / | / | O=C(Nc1ccc(F)cc1)N1CC(=O)N2[C@H](C1)[C@H](c1ccc(C#Cc3cccnc3)cc1)[C@@H]2CO |
| -0.4 | 3.1 | -3.5 | CCN(C[C@H]1[C@@H](c2ccccc2)[C@H](CO)N1C(C)=O)C(=O)c1ccccn1 |
| -6.3 | -1.6 | -4.7 | O=C(CN1CCOCC1)N1CCCCN2[C@H](CO)[C@@H](c3ccc(/C=C/c4ccccc4)cc3)[C@@H]2C1 |
| 1.4 | -0.4 | 1.8 | C[C@H](NC(=O)C[C@H]1CC[C@H]2[C@@H](COc3ccc(NS(=O)(=O)c4ccc(Cl)cc4)cc3C(=O)N2C)O1)c1ccccc1 |
| 0.8 | -1.3 | 2.1 | C[C@@H]1CCCCO[C@@H](CN(C)C(=O)CCC(F)(F)F)[C@@H](C)CN([C@H](C)CO)C(=O)c2cc(NC(=O)Cc3ccccc3)ccc2O1 |
| -5.5 | 12.4 | -17.9 | CN1c2ccc(-c3ccccc3)cc2[C@@H]2[C@@H](CCN2C(=O)c2ccc3c(c2)OCO3)[C@@H]1CO |
| 24.1 | 11.1 | 13.0 | COc1ccc(NC(=O)N2CC[C@@H]3[C@@H](CO)N(C)c4ccc(-c5cccc(F)c5)cc4[C@@H]32)cc1 |
| 0.7 | -11.2 | 11.9 | CC=Cc1ccc2n(c1=O)C[C@H]1[C@H](CO)[C@@H](C(=O)NCC3CC3)N(CC3CCOCC3)[C@@H]21 (mixture of isomers) |
| -1.3 | -7.3 | 6.0 | N#C[C@@H]1[C@@H](c2ccccc2)[C@@H](CO)N1S(=O)(=O)Cc1ccccc1 |
| -5.3 | -6.4 | 1.1 | CCNC[C@H]1[C@H](c2ccc(C3=CCCCC3)cc2)[C@@H](CO)N1C(=O)NC(C)C |
| 1.7 | -2.0 | 3.7 | N#C[C@@H]1[C@@H](c2ccccc2)[C@H](CO)N1C(=O)Cc1ccccc1 |
| 2.5 | 1.2 | 1.3 | C/C=C/c1cccc(-c2nc(C(=O)NCCC)cc3c2[C@H](CCO)N([S@@](=O)C(C)(C)C)C3)c1 |
| 2.1 | 2.4 | -0.3 | C[C@@H]1CN([C@H](C)CO)C(=O)c2cc(-c3cccc(C#N)c3)cnc2O[C@@H]1CN(C)Cc1ccc(F)cc1 |
| 14.8 | 9.9 | 4.9 | CCC(=O)N1CC2(C1)[C@@H](c1ccccc1)[C@@H](CO)N2CC1CCOCC1 |
| ? | / | / | OC[C@@H]1Nc2ccc(C#Cc3ccccc3)cc2[C@@H]2[C@H]1CCN2Cc1nccs1 |
| -0.9 | -2.8 | 1.9 | Cc1noc(C)c1NC(=O)Nc1ccc2c(c1)C(=O)N([C@H](C)CO)C[C@H](C)[C@@H](CN(C)S(=O)(=O)c1cccs1)OCCCC[C@@H](C)O2 |
| 1.4 | -2.0 | 3.4 | CCCN1C[C@H](C)[C@@H](OC)CN(C)C(=O)c2cc(NC(=O)c3cccc(OC)c3)ccc2OC[C@H]1C |
| 1.6 | -0.7 | 2.3 | CO[C@@H]1CN(C)C(=O)c2cc(NC(=O)c3cnccn3)ccc2OC[C@@H](C)NC[C@@H]1C |
| 5.7 | -1.3 | 7.0 | CCC(=O)N1CC(=O)N2[C@H](CO)[C@@H](c3ccc(C#CC(C)C)cc3)[C@H]2C1 |
| 10.3 | -11.9 | 22.2 | COCC(=O)N1CC2(C1)CN(Cc1ccc3c(c1)OCO3)[C@@H](CO)c1c2c2ccc(OC)cc2n1C |
| 8.5 | -18.9 | 27.3 | COCC(=O)N1CC[C@H]2[C@H](CO)Nc3ccc(C#Cc4ccc(OC)cc4)cc3[C@H]21 |
| 1.2 | 8.1 | -6.9 | O=C(C[C@@H]1C=C[C@H](NC(=O)Cc2cccnc2)[C@@H](CO)O1)Nc1ccc(-c2ccccc2)cc1 |
| 0.0 | -2.7 | 2.6 | N#C[C@H]1[C@H](c2ccc(-c3cccc(F)c3)cc2)[C@@H](CO)N1C(=O)NC1CCCC1 |
| -0.2 | -7.3 | 7.1 | Cc1ccc(S(=O)(=O)N(C)C[C@H]2OCCCC[C@H](C)Oc3ccc(NC(=O)c4ccncc4)cc3C(=O)N([C@@H](C)CO)C[C@H]2C)cc1 |
| 2.1 | -2.5 | 4.6 | N#C[C@@H]1[C@@H](c2ccc(C#Cc3ccccc3F)cc2)[C@@H](CO)N1C(=O)C1CC1 |
| -1.8 | -0.1 | -1.7 | CN1[C@@H]2c3ccc(-c4cccc(F)c4)c(=O)n3C[C@H]1[C@H](CO)[C@H]2C(=O)N1CCCCC1 |
| ? | / | / | COc1ccc2c3c([nH]c2c1)[C@H](CO)N(Cc1cc(F)ccc1F)CC31CCN(C)CC1 |
| -1.6 | -1.5 | -0.1 | O=C(c1ccccc1)N1C[C@H]2[C@@H](c3ccccc31)[C@H](CO)N2Cc1cc(F)ccc1F |
| -2.5 | 0.6 | -3.2 | C/C=C/c1cnc2c(c1)C(=O)N([C@H](C)CO)C[C@@H](C)[C@H](CN(C)CC1CCOCC1)O2 |
| 9.4 | 7.3 | 2.1 | COCC#Cc1ccc([C@H]2[C@@H](CO)N3C(=O)CN(C(=O)Nc4cc(F)ccc4F)C[C@H]23)cc1 |
| 3.0 | 4.9 | -1.8 | COc1ccc(S(=O)(=O)N(C)C[C@@H]2OCCCC[C@@H](C)Oc3ccc(NC(=O)Cc4ccccc4)cc3C(=O)N([C@@H](C)CO)C[C@@H]2C)cc1 |
| -3.9 | -11.0 | 7.1 | CC(C)C#Cc1ccc([C@H]2[C@H](CO)N3C(=O)CN(C(=O)NC4CCCC4)C[C@@H]23)cc1 |
| 6.3 | 6.4 | -0.1 | COc1cccc(S(=O)(=O)N2C[C@H](O)COC[C@@H]3O[C@H](CC(=O)N4CCCCC4)CC[C@H]32)c1 |
| ? | / | / | CCC(=O)N1CCCCN2[C@H](C1)[C@@H](c1ccc(/C=C/c3ccccc3)cc1)[C@@H]2CO |
| 0.4 | -0.5 | 0.9 | COCCNC(=O)C[C@@H]1C[C@H]2c3cc(NC(=O)Nc4ccc(C(F)(F)F)cc4)ccc3O[C@H]2[C@@H](CO)O1 |
| 8.7 | 5.8 | 2.9 | COc1ccc(-c2ccccc2[C@H]2[C@@H](CO)N(C(=O)C3CC3)[C@H]2C#N)cc1 |
| -45.3* | -26.5* | -18.8* | COc1ccc2c3c([nH]c2c1)[C@H](CO)N(Cc1ccc(Cl)cc1)CC31CN(S(C)(=O)=O)C1 |
| 1.8 | -7.4 | 9.2 | CN(C)CC#Cc1ccc([C@H]2[C@H]3CN(C(=O)c4cccc(F)c4)CC(=O)N3[C@H]2CO)cc1 |
| -3.7 | -6.0 | 2.3 | CNC(=O)C[C@H]1CC[C@H]2[C@H](COc3ccc(NC(=O)c4cccc(OC)c4)cc3C(=O)N2C)O1 |
| -1.0 | 1.0 | -2.0 | Cc1noc(C)c1NC(=O)N(C)C[C@@H]1OCc2cnnn2CCCC(=O)N([C@H](C)CO)C[C@H]1C |
| 2.9 | 1.0 | 1.9 | CO[C@H]1CN(C)C(=O)c2cc(NC(=O)NC(C)C)ccc2OC[C@@H](C)N(C(=O)C2CCC2)C[C@H]1C |
| 1.9 | -0.1 | 2.0 | C[C@@H]1CCCCO[C@H](CN(C)Cc2ccncc2)[C@@H](C)CN([C@H](C)CO)C(=O)c2cc(NS(=O)(=O)c3ccc(Cl)cc3)ccc2O1 |
| 7.3 | 4.8 | 2.5 | COc1ccc2c3c(n(C)c2c1)[C@H](CO)NCC31CCN(C(C)=O)CC1 |
| 2.8 | -4.3 | 7.0 | O=C(C[C@@H]1CC[C@@H]2[C@H](COC[C@@H](O)CN2S(=O)(=O)c2ccccc2)O1)NCc1ccc2c(c1)OCO2 |

Single records (already shown).
COCC(=O)N1CC[C@H]2[C@H](CO)Nc3ccc(C#Cc4ccc(OC)cc4)cc3[C@H]21 is listed as DUX4 inh: 8.5; DUX4 inh difference: -18.9; DUX4 inh control: 27.3
C/C=C/c1cnc2c(c1)C(=O)N([C@H](C)CO)C[C@@H](C)[C@H](CN(C)CC1CCOCC1)O2 is listed as DUX4 inh: -2.5; DUX4 inh difference: 0.6; DUX4 inh control: -3.2

Other results:
| DUX4 inh | DUX4 inh difference | DUX4 inh control | Compound |
| --- | --- | --- | --- |
| -1.0 | -3.5 | 2.5 | O=C(C[C@@H]1C[C@H]2c3cc(NC(=O)NC4CCCC4)ccc3O[C@H]2[C@H](CO)O1)NCc1cccc(F)c1 |
| 2.7 | 0.5 | 2.2 | CN1[C@H](C(=O)NCCN2CCCC2)[C@@H](CO)[C@@H]2Cn3c(ccc(/C=C/c4ccccc4)c3=O)[C@@H]21 |
| 16.6 | 28.2 | -11.6 | CN(C)C(=O)c1ccc(-c2ccc(C3[C@H]4CNC[C@@H]3N4S(=O)(=O)c3ccc(F)cc3)cc2)cc1 (some centres not stated) |
| -3.8 | -2.2 | -1.7 | Cc1noc(C)c1S(=O)(=O)Nc1ccc2c(c1)C(=O)N([C@@H](C)CO)C[C@@H](C)[C@@H](CN(C)Cc1ccc(C(=O)O)cc1)OCCCC[C@@H](C)O2 |
| -0.2 | 0.1 | -0.3 | Cc1cccc(S(=O)(=O)N2C[C@H](O)COC[C@@H]3O[C@H](CC(=O)Nc4ccccc4)CC[C@H]32)c1 |
| 2.9 | -2.2 | 5.1 | CO[C@H]1CN(C)C(=O)c2ccc(NC(C)=O)cc2OC[C@H](C)N(C(=O)Cc2cccnc2)C[C@H]1C |
| ? | / | / | COc1ccc2c3c(n(C)c2c1)[C@H](CO)N(S(=O)(=O)c1ccc(C)cc1)CC31CN(S(=O)(=O)c2ccc(C)cc2)C1 |
| ? | / | / | O=C(CC1CC1)N1[C@H](CO)[C@@H](c2ccccc2)C12CN(Cc1ccccc1F)C2 |
| 7.8 | 15.6 | -7.8 | C[C@@H]1CN([C@@H](C)CO)C(=O)c2ccccc2-c2ccccc2CO[C@H]1CN(C)C(=O)c1ccccc1 |
| -7.8 | -11.0 | 3.2 | CCCN1C[C@H](C)[C@@H](OC)CN(C)C(=O)c2cc(NC(=O)CC)ccc2OC[C@H]1C |
| 1.7 | -0.6 | 2.4 | C[C@H]1CCCCO[C@H](CN(C)C(=O)CCCN(C)C)[C@@H](C)CN([C@@H](C)CO)C(=O)c2cc(NC(=O)Nc3cccc4ccccc34)ccc2O1 |
| 0.1 | -6.0 | 6.1 | COCC(=O)Nc1ccc2c(c1)C(=O)N(C)[C@@H]1CC[C@H](CC(=O)NCC(F)(F)F)O[C@H]1CO2 |
| ? | / | / | O=C(c1cccc(F)c1)N1CC2(C1)[C@H](c1ccccc1)[C@H](CO)N2C(=O)C1CCCC1 |
| 1.5 | 6.0 | -4.5 | CN(C)CCCNC(=O)C[C@H]1CC[C@@H](NS(=O)(=O)c2ccccc2)[C@@H](CO)O1 |
| -9.3 | -8.0 | -1.3 | CC(C)COC(=O)N(C)C[C@H]1OCc2ccccc2-c2c(n(C)c3ccccc23)C(=O)N([C@@H](C)CO)C[C@H]1C |
| -4.5 | -3.8 | -0.7 | COc1ccc(NC(=O)Nc2ccc3c(c2)[C@H]2C[C@H](CC(=O)N4CCc5ccccc5C4)O[C@H](CO)[C@H]2O3)cc1 |
| ? | / | / | CCc1cnc(N2[C@H](C#N)[C@@H](c3ccccc3C3=CCCCC3)[C@@H]2CO)s1 |
| -3.8 | -0.7 | -3.1 | C[C@@H]1CN([C@H](C)CO)C(=O)c2cc(NC(=O)Nc3cccc4ccccc34)ccc2O[C@H]1CN(C)S(=O)(=O)c1cccs1 |
| 0.5 | 0.6 | -0.1 | CN(C)CCCNC(=O)C[C@H]1CC[C@H]2[C@H](COc3ccc(NC(=O)c4ccc5c(c4)OCO5)cc3C(=O)N2C)O1 |
| 4.6 | 3.1 | 1.5 | CCCNC(=O)[C@@H]1[C@@H](CO)[C@@H]2Cn3c(ccc(-c4ccc(F)cc4)c3=O)[C@@H]2N1C |
| -1.5 | 1.3 | -2.7 | O=C(c1ccncc1)N1C[C@H]2[C@@H](c3ccccc31)[C@@H](CO)N2C(=O)Nc1ccccc1Cl |
